AF4-AF9 inh = MLL-AF4/AF9 protein interaction inhibition. P42568. AlphaScreen, biotin-AF4 peptide binding to FLAG-AF9. inhibition, % at 10 µM. 0.47% of 350,000 active. AID 651704;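 active = every replicate reaching a set inhibition limit, whatever the replicate mean, cut at about 25% in these data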;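 note: 0% = plate neutral control median and 100% = total signal loss; the record names both 10 and 1 µM as test concentration; the first replicate is given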
Target sequence (P42568 whole entry, looked up): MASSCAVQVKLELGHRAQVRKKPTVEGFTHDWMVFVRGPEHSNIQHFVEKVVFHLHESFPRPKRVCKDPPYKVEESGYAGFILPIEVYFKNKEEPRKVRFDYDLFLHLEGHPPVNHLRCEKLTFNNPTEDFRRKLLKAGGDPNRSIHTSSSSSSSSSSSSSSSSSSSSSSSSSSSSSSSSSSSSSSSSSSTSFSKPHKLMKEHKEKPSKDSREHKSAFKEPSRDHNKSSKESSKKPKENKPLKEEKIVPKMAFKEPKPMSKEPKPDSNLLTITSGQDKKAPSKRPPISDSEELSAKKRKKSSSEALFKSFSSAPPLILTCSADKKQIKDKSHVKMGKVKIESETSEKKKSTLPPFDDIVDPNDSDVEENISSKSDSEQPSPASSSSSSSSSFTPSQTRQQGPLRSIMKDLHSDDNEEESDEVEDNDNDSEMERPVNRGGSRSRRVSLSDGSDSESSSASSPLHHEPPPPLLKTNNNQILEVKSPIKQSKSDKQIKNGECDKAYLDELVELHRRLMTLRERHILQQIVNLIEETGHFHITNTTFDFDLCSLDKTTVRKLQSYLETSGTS
rRNA inh HTS = inhibits bacterial ribosomal RNA function over humanized ribosomes; 1.6% of 350,000 active; GFP signal change (wild-type ribosome), % (concentration not given with the values); E. coli WT GFP vs humanized-ribosome RFP mutants, fluorescence, 24 h; stronger effect = lower value; DMSO median 0, no signal -100;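 active = significant combined selectivity score with lowered wild-type GFP, culture density cut under 30%, mutant RFP and density less affected; inactive = any of these conditions unmet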; note: one replicate is shown; some compounds called inactive have numbers as strong as hits
rRNA inh HTS OD600 = further read-out of rRNA inh HTS, marked with its call; OD600 change, %; measured here: OD600 growth;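 optical density of the mix in the first replicate; 0 = DMSO median and -100 = no signal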
rRNA inh HTS RFP = further read-out of rRNA inh HTS, marked with its call; RFP signal change, %; measured here: RFP humanized mutant strains;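 first replicate; 0 = DMSO median and -100 = no signal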
* marks the source's active call; other numbers are inactive results; & = joins results of further samples. An excerpt. The share of hits here may be higher or lower than overall.

Start of the data: the first twelve compounds, ahead of the listing:
SMILES | AF4-AF9 inh | rRNA inh HTS | rRNA inh HTS OD600 | rRNA inh HTS RFP
CCCC(=O)Nc1ccc2c(c1)C(=O)N(C)C[C@H](OC)[C@H](C)CN(Cc1ccccc1F)[C@H](C)CO2 | 2.0 | -3.6 | 0.4 | -1.6
C[C@H]1CN([C@@H](C)CO)C(=O)c2cc(-c3cncnc3)cnc2O[C@H]1CN(C)Cc1cncnc1 | -3.4 | 2.4 | 3.6 | -2.4
C/C=C/c1ccc([C@@H]2[C@@H](CN(CC)C(=O)CN(C)C)N(C(C)=O)[C@H]2CO)cc1 | -0.4 | 0.4 | 2.5 | -0.2
C[C@H]1CN([C@@H](C)CO)C(=O)Cc2cc(NC(=O)CCC(F)(F)F)ccc2O[C@H]1CN(C)Cc1ccc(C(=O)O)cc1 | -2.9 | 5.7 | 9.6 | -1.6
C[C@@H]1CCCCO[C@@H](CN(C)Cc2ccncc2)[C@H](C)CN([C@@H](C)CO)C(=O)c2cc(NC(=O)C3CCCCC3)ccc2O1 | -3.4 | -1.3 | -3.6 | 0.6
Cc1cccc(C)c1NC(=O)C(c1ccc(-c2ccccc2)cc1)n1c(=O)c(-c2cc3ccccc3[nH]2)nc2ccccc21 (configuration not stated) | -11.8 | -4.5 | 6.0 | 3.3
O=C(NCC[C@@H]1CC[C@H](NC(=O)C2CC2)[C@@H](CO)O1)Nc1ccc(C(F)(F)F)cc1 | 3.3 | -0.8&-58.5 | -4.6&-80.5 | 0.0&-18.2
COC(=O)C1=C(C)N(Cc2ccccc2C(F)(F)F)C(=NCc2ccccc2C(F)(F)F)NC1c1cccc(C(F)(F)F)c1 (configuration not stated) | -5.2 | 9.6 | 8.0 | 4.3
Cc1noc(C)c1NC(=O)N(C)C[C@@H]1Oc2c(NS(=O)(=O)c3cn(C)cn3)cccc2C(=O)N([C@H](C)CO)C[C@@H]1C | -2.5 | 1.0 | 4.1 | 0.2
C[C@H](CO)N1C[C@H](C)[C@@H](CN(C)C(=O)c2ccccc2)Oc2cc(C#CC3(O)CCCC3)ccc2S1(=O)=O | -0.5 | -2.5 | -12.5 | 2.4
Cc1noc(C)c1S(=O)(=O)N(C)C[C@@H]1Oc2ccc(NC(=O)CCN3CCOCC3)cc2CC(=O)N([C@@H](C)CO)C[C@@H]1C | 1.7 | 2.0 | -3.8 | -1.0
C[C@H](O)C#Cc1cnc2c(c1)C(=O)N([C@@H](C)CO)C[C@@H](C)[C@@H](CN(C)C(=O)Cc1ccncc1)O2 | 1.7 | -0.4 | -1.6 | -0.8

The list itself, previewed entries included:
SMILES | AF4-AF9 inh | rRNA inh HTS | rRNA inh HTS OD600 | rRNA inh HTS RFP
CCCC(=O)Nc1ccc2c(c1)C(=O)N(C)C[C@H](OC)[C@H](C)CN(Cc1ccccc1F)[C@H](C)CO2 | 2.0 | -3.6 | 0.4 | -1.6
C[C@H]1CN([C@@H](C)CO)C(=O)c2cc(-c3cncnc3)cnc2O[C@H]1CN(C)Cc1cncnc1 | -3.4 | 2.4 | 3.6 | -2.4
C/C=C/c1ccc([C@@H]2[C@@H](CN(CC)C(=O)CN(C)C)N(C(C)=O)[C@H]2CO)cc1 | -0.4 | 0.4 | 2.5 | -0.2
C[C@H]1CN([C@@H](C)CO)C(=O)Cc2cc(NC(=O)CCC(F)(F)F)ccc2O[C@H]1CN(C)Cc1ccc(C(=O)O)cc1 | -2.9 | 5.7 | 9.6 | -1.6
C[C@@H]1CCCCO[C@@H](CN(C)Cc2ccncc2)[C@H](C)CN([C@@H](C)CO)C(=O)c2cc(NC(=O)C3CCCCC3)ccc2O1 | -3.4 | -1.3 | -3.6 | 0.6
Cc1cccc(C)c1NC(=O)C(c1ccc(-c2ccccc2)cc1)n1c(=O)c(-c2cc3ccccc3[nH]2)nc2ccccc21 (configuration not stated) | -11.8 | -4.5 | 6.0 | 3.3
O=C(NCC[C@@H]1CC[C@H](NC(=O)C2CC2)[C@@H](CO)O1)Nc1ccc(C(F)(F)F)cc1 | 3.3 | -0.8&-58.5 | -4.6&-80.5 | 0.0&-18.2
COC(=O)C1=C(C)N(Cc2ccccc2C(F)(F)F)C(=NCc2ccccc2C(F)(F)F)NC1c1cccc(C(F)(F)F)c1 (configuration not stated) | -5.2 | 9.6 | 8.0 | 4.3
Cc1noc(C)c1NC(=O)N(C)C[C@@H]1Oc2c(NS(=O)(=O)c3cn(C)cn3)cccc2C(=O)N([C@H](C)CO)C[C@@H]1C | -2.5 | 1.0 | 4.1 | 0.2
C[C@H](CO)N1C[C@H](C)[C@@H](CN(C)C(=O)c2ccccc2)Oc2cc(C#CC3(O)CCCC3)ccc2S1(=O)=O | -0.5 | -2.5 | -12.5 | 2.4
Cc1noc(C)c1S(=O)(=O)N(C)C[C@@H]1Oc2ccc(NC(=O)CCN3CCOCC3)cc2CC(=O)N([C@@H](C)CO)C[C@@H]1C | 1.7 | 2.0 | -3.8 | -1.0
C[C@H](O)C#Cc1cnc2c(c1)C(=O)N([C@@H](C)CO)C[C@@H](C)[C@@H](CN(C)C(=O)Cc1ccncc1)O2 | 1.7 | -0.4 | -1.6 | -0.8
COc1ccc(S(=O)(=O)Nc2cccc3c2O[C@H](CN(C)C(=O)NC(C)C)[C@H](C)CN([C@H](C)CO)C3=O)cc1 | 5.0 | -2.2 | -0.1 | -1.6
O=C(Nc1ccc(F)cc1)N[C@H]1C=C[C@H](CC(=O)N2CCOCC2)O[C@H]1CO | -20.7 | 6.3 | 7.8 | 0.0
Cc1cccc(C)c1-n1nnnc1C1c2ccccc2C(=O)N1CCOc1ccccc1 (configuration not stated) | 1.1 | -13.3 | -4.3 | -1.2
O=C(Cc1ccccc1)N1CC(=O)N2[C@H](CO)[C@H](c3ccc(C#Cc4ccccc4)cc3)[C@H]2C1 | -8.9 | -57.3 | -67.5 | -9.5
COc1ccc(-c2ccc(C(=O)Nc3cccc(F)c3)c3occc23)c(C)c1 | -5.9 | 0.8 | 9.9 | -2.3
C[C@H]1CN([C@@H](C)CO)C(=O)c2cc(NC(=O)Nc3ccc4c(c3)OCO4)ccc2O[C@H]1CN(C)Cc1ccc2c(c1)OCO2 | 5.6 | 0.6 | -6.2 | 1.5
C[C@@H]1CN([C@H](C)CO)C(=O)c2cc(N(C)C)ccc2O[C@@H]1CN(C)C(=O)Nc1ccccc1 | -0.6 | 2.8 | 2.0 | -1.5
O=C1CN(S(=O)(=O)Cc2ccccc2)C[C@@H]2[C@H](c3ccc(C#CC4CC4)cc3)[C@H](CO)N12 | 3.2 | -17.2 | -45.5 | 20.8
CCNC(=O)C[C@@H]1CC[C@H]2[C@H](COc3ccc(NC(=O)c4ccc(C(F)(F)F)cc4)cc3C(=O)N2C)O1 | -0.6 | -5.0 | -2.5 | 5.1
C/C=C/c1ccc2c(c1)O[C@@H](CN(C)C(=O)Cc1ccccn1)[C@@H](C)CN([C@H](C)CO)S2(=O)=O | -6.5 | 2.3 | 10.8 | -4.3
COc1ccccc1-c1ccc2c(c1)O[C@@H](CN(C)C(C)=O)[C@@H](C)CN([C@@H](C)CO)S2(=O)=O | -2.3 | -0.2 | -5.6 | -1.5
O=C(Nc1ccccc1F)N1CC(=O)N2[C@H](CO)[C@H](c3ccc(C#Cc4ccc(F)cc4)cc3)[C@@H]2C1 | -1.7 | -5.7 | -51.5 | 18.6
CCCCCNC(=O)C(CCc1ccccc1)n1c(=O)c(-c2ccccc2)nc2ccccc21 (configuration not stated) | 8.7 | -0.2 | -9.2 | 19.8
CO[C@@H]1CN(C)C(=O)c2cc(NC(=O)C3CCC3)ccc2OC[C@H](C)N(Cc2cccnc2)C[C@H]1C | -2.1 | -2.5 | -1.9 | 0.0
Cc1ccc(S(=O)(=O)Nc2cccc3c2O[C@@H](CN(C)CC2CC2)[C@@H](C)CN([C@@H](C)CO)C3=O)cc1 | 1.9 | 3.0 | 11.7 | -4.1
C[C@H]1CN([C@@H](C)CO)C(=O)Cc2cc(N(C)C)ccc2O[C@H]1CN(C)Cc1ccccc1 | 1.8 | -0.9 | 0.0 | -0.5
C[C@H](CO)N1C[C@H](C)[C@@H](CN(C)Cc2ccc(C(F)(F)F)cc2)Oc2ccc(NC(=O)Cc3cn(C)c4ccccc34)cc2C1=O | -2.1 | 2.4 | -3.5 | 1.5
COCC(=O)Nc1ccc2c(c1)C(=O)N(C)C[C@H](OC)[C@H](C)CN(C(=O)c1cccnc1)[C@@H](C)CO2 | -0.3 | 1.9 | 4.0 | 1.2
CO[C@@H]1CN(C)C(=O)c2ccc(NC(=O)C3CC3)cc2OC[C@@H](C)N(Cc2nccs2)C[C@@H]1C | -0.7 | -0.1 | 5.7 | 1.4
C[C@H]1CN([C@@H](C)CO)C(=O)Cc2cc(NC(=O)C3CC3)ccc2O[C@H]1CN(C)Cc1ccc2c(c1)OCO2 | -3.1 | -0.6 | -6.0 | -1.1
O=C(N[C@H]1CC[C@H](CCn2cc(-c3ccc(F)cc3)nn2)O[C@@H]1CO)c1cnccn1 | -1.0 | 1.5 | 3.7 | -2.1
C[C@@H]1CN([C@@H](C)CO)C(=O)c2cc(C#Cc3cccnc3)cnc2O[C@@H]1CN(C)C(=O)CN(C)C | -5.4 | 2.2 | 9.6 | -3.2
Cc1noc(C)c1NC(=O)Nc1ccc2c(c1)C(=O)N([C@H](C)CO)C[C@H](C)[C@@H](CN(C)S(=O)(=O)c1cn(C)cn1)OCCCC[C@@H](C)O2 | -1.1 | 1.3 | 4.0 | -2.1
CN(C)CCCNC(=O)C[C@@H]1CC[C@H]2[C@H](COc3ccc(NC(=O)c4cccc(F)c4)cc3C(=O)N2C)O1 | -0.1 | 1.9 | 2.3 | -2.7
Cc1ccc(S(=O)(=O)Nc2ccc3c(c2)CC(=O)N([C@@H](C)CO)C[C@H](C)[C@H](CN(C)Cc2ccccc2)O3)cc1 | 1.4 | 2.7 | -6.9 | 3.8
COc1ccc(NC(=O)N(C)C[C@H]2OCCCC[C@@H](C)Oc3ccc(NC(=O)NC(C)C)cc3C(=O)N([C@H](C)CO)C[C@@H]2C)cc1 | 0.5 | -0.2 | 0.8 | 0.2
COc1ccc(NC(=O)N(C)C[C@@H]2Oc3c(NC(=O)Nc4c(C)noc4C)cccc3C(=O)N([C@H](C)CO)C[C@@H]2C)cc1 | -2.1 | 2.9 | 1.1 | -1.1
C[C@@H]1CCCCO[C@@H](CN(C)S(=O)(=O)c2ccc(F)cc2)[C@@H](C)CN([C@H](C)CO)C(=O)c2cc(NC(=O)CCC(F)(F)F)ccc2O1 | -18.5 | 6.4 | 10.9 | -2.9
CCC(=O)N[C@@H]1C=C[C@H](CC(=O)NCc2ccccc2F)O[C@@H]1CO | -0.7 | 2.3 | -2.0 | -1.2
COC(=O)C(C(=O)OC)C1CCCCC1NS(=O)(=O)c1ccc(C)cc1 (configuration not stated) | 0.7 | -5.8 | -3.3 | -1.7
O=C(C[C@H]1C[C@H]2c3cc(NS(=O)(=O)c4ccc(F)cc4)ccc3O[C@H]2[C@@H](CO)O1)NCc1ccc(Oc2ccccc2)cc1 | 0.2 | -5.4 | -8.0 | 3.3
C[C@H](CO)N1C[C@H](C)[C@@H](CN(C)Cc2ccc(Oc3ccccc3)cc2)Oc2ccc(NC(=O)Nc3ccc4c(c3)OCO4)cc2C1=O | 11.6 | 1.6 | 4.7 | 4.6
O=C(NCC[C@H]1CC[C@@H](NC(=O)C2CCOCC2)[C@@H](CO)O1)Nc1ccc(Cl)cc1 | -8.9&-1.7 | -10.8&-4.8 | -7.0&-10.7 | 0.1&6.9
C[C@@H]1CN([C@H](C)CO)C(=O)c2cc(NS(=O)(=O)c3ccc(Cl)cc3)ccc2O[C@@H](C)CCCCO[C@@H]1CN(C)S(C)(=O)=O | -3.0 | -1.1 | 2.2 | 0.5
O=C(C[C@@H]1CC[C@@H]2[C@H](COC[C@H](O)CN2S(=O)(=O)c2ccc(Oc3ccccc3)cc2)O1)Nc1ccccc1 | -0.2 | -9.5 | -34.7 | 15.2
COc1cccc(NC(=O)Nc2ccc3c(c2)C(=O)N(C)C[C@H](OC)[C@@H](C)CN(C)[C@H](C)CO3)c1 | 2.7 | 0.7 | -1.5 | -1.2
C[C@@H](NC(=O)C[C@@H]1C[C@@H]2c3cc(NC(=O)CN(C)C)ccc3O[C@@H]2[C@H](CO)O1)c1ccccc1 | -0.2 | 1.2 | 12.0 | -2.4
COc1ccc(C#Cc2ccc3c(c2)[C@@H]2[C@@H](CCN2C(=O)CN2CCOCC2)[C@H](CO)N3C)cc1 | 4.1 | -7.4 | -20.6 | 16.5
Other compounds follow:
SMILES | AF4-AF9 inh | rRNA inh HTS | rRNA inh HTS OD600 | rRNA inh HTS RFP
Cc1noc(C)c1S(=O)(=O)Nc1ccc2c(c1)CC(=O)N([C@@H](C)CO)C[C@@H](C)[C@H](CN(C)Cc1ccc(Cl)c(Cl)c1)O2 | 2.0 | -4.3 | -0.6 | 4.0
O=C(Nc1ccc2c(c1)[C@H]1C[C@H](CC(=O)N3CCCCC3)O[C@H](CO)[C@H]1O2)NC1CCCC1 | -0.8 | -1.0 | -2.4 | -1.3
COc1cccc(-c2cnc(C(O)c3cc(C)c(OC)c(C)c3)[nH]2)c1 (configuration not stated) | 5.2 | 5.9 | 9.9 | 6.6
CC(C)C#Cc1cnc2c(c1)C(=O)N([C@H](C)CO)C[C@H](C)[C@@H](CN(C)S(=O)(=O)c1cn(C)cn1)O2 | -3.5 | -4.7 | 5.1 | 0.9
